YopH PTP inh: YopH (Yersinia) phosphatase inhibition | fluorescence Ex485/Em525 | inhibition, %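 (about 10 µM by stock and volumes)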 | hit rate 0.16% among 140,000 | AID 898;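 active = inhibition of 50% or more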;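 also: controls were vehicle for no effect and minimum signal wells for full effect; inactives centre near -20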
Mtb betalactam: beta-lactam sensitization of Mtb H37Rv | M. tuberculosis H37Rv growth with meropenem, percent inhibition; hits of this screen are not shown here | inhibition, % at 25 µM | hit rate 0.27% among 330,000 | AID 434955;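 active = about 74% or more and at least 40 points above the plate without the antibiotic, then above 30% in a dose series; inconclusive = first-round hits that could not be retested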;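 also: growth measured after seven days incubation then overnight dye step; 0% = bacteria only wells and 100% = bacteria with antibiotic; twin plates without the antibiotic show which effects depend on it; some results filed as inactive read as strong as hits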
Mtb growth: M. tuberculosis H37Rv growth inhibitors, H37Rv strain (AID 1626) | hit rate 0.95% among 220,000 | M. tuberculosis H37Rv growth inhibition; higher % means a stronger effect | one-dose inhibition, % at 10 µM; IC50 in µM for titrated hits;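 active = confirmed in a dose series; inconclusive = inhibition above 80% but not taken into the dose series; inactive = below 80% or under 30% at every dose of the series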;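 also: bacteria incubated seven days before Alamar blue readout; 0% = bacteria only wells and 100% = bacteria with antibiotic wells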
Arbovirus inh: blocks arbovirus infection; arbovirus infection cell-based antiviral screen; inhibition, % at 10 µM; hit rate 0.37% among 200,000; AID 1251;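 active = inhibition from about 30%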;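 also: bluetongue infection of BSR cells; cell survival read as ATP light after 72 h; 0% = infected wells without compound and 100% = uninfected wells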
RecA splice inh: inhibitors of M. tuberculosis RecA intein splicing; hit rate 0.75% among 290,000; inhibition, %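 (about 9 µM by stock and volumes)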; cell-free RecA intein splicing, fluorescence; AID 2221; in the data active = inhibition above about 30%; inconclusive = no clear call, values can overlap the other calls;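 also: 0% = vehicle wells and 100% = reference inhibitor control wells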
Target sequence (P9WHJ3 whole entry, looked up, canonical isoform): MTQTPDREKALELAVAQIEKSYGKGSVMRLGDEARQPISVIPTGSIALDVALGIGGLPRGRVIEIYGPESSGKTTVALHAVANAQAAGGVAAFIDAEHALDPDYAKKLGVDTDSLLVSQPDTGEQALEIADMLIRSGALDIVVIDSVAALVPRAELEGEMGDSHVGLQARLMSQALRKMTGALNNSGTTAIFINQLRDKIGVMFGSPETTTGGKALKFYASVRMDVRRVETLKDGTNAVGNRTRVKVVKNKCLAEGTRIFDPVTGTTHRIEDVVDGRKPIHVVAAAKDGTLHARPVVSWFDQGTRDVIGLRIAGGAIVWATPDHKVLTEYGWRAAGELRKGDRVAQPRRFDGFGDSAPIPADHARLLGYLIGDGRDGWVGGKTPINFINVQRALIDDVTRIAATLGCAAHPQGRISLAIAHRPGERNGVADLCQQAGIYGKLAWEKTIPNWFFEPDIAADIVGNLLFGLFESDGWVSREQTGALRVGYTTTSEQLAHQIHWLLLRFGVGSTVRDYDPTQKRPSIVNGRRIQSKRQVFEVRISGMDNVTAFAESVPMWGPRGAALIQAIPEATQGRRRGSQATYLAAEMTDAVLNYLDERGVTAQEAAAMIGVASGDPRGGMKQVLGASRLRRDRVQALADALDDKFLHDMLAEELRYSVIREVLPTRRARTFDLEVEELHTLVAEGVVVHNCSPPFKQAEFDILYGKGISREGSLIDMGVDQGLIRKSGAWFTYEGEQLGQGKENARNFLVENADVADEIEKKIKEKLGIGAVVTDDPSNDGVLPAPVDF
Arbovirus inh repeat: also measured in Arbovirus inh; calls as there; inhibition, %; measured here: 10K subset replicate screen; many hits read low in the repeat;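 first of two repeat runs on a subset; 0% = infected and 100% = uninfected wells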
The depositor's hits bear a star; ? = inconclusive; nt = not tested or not shown.

SMILES	YopH PTP inh	Mtb betalactam	Mtb growth	Arbovirus inh	RecA splice inh	others
CCOC(=O)N/N=C/c1c(C)c(C(=O)c2ccc(F)cc2)n2ccccc12	nt	-1	-1%	1	5.7
O=C(NCc1ccccc1)C1CCCN(S(=O)(=O)c2cccnc2)C1 (configuration not stated)	14	-5	-13%	9	4.1
COc1ccc(N2C(=O)CS/C2=C\[N+](=O)[O-])cc1	-21	30	-6%	4	nt
CCc1cc2c(=O)c(-c3nc4ccccc4[nH]3)coc2c(CN2CCCCC2)c1O	nt	6	2%	nt	1.4
COCCN(Cc1cc2cc3c(cc2nc1Cl)OCO3)C(=O)Nc1ccccc1OC	-25	1	-5%	-9	0.7
Cn1cccc1CC(=O)N/N=C\c1cccs1	-22	-17	nt	12	1.3
O=C(O)c1cc(-c2ccc(/C=N/N3C(=O)C4C5C=CC(C6CC56)C4C3=O)o2)ccc1Cl (configuration not stated)	nt	-3	2%	5	0.9
COc1ccccc1N(CC(=O)NC1CCCCC1)C(=O)c1cnn(C(C)C)c1	9	-4	-5%	0	3.8
Cc1ccc(/C=C/C(=O)NC(=S)Nc2ccc(S(=O)(=O)Nc3cc(C)on3)cc2)cc1	nt	4	nt	nt	-2.8
Cc1c(C#N)c2ncn(Cc3ccccc3)c(=O)c2n1-c1ccccc1	-18	1	1%	3	-6.9	Arbovirus inh repeat=-3
C=CCNC(=O)c1cc(Cl)ccn1	nt	-5	5%	4	0.2
CC1=Nc2cc(C(=O)O)ccc2Sc2ccc(C)cc21	nt	-5	-3%	10	0.3
CCCC/C(O)=C1\C(=O)CCCC1=NCCc1c(C)[nH]c2ccccc12	nt	0	25%	nt	3.7
Cc1ccc(C)c(-n2nnnc2SCC(=O)NCCC2=CCCCC2)c1	-18	-1	-4%	-1	8.8
C/C(N)=C(/C#N)C(=O)CSc1nnc(-c2ccccc2Br)o1	10	4	0%	-15	1.1
COC(=O)c1scc(C)c1S(=O)(=O)Nc1ccc(C)cc1	nt	37	37%	nt	nt
C/C(=N/NC(=O)c1cccc(C)c1)c1c(O)cc(C)oc1=O	4	4	-9%	-3	1.2
Cc1nn(C)cc1CNC(=O)c1ccc(Br)o1	-46	-15	-5%	1	0.4
C[C@H](NC(=O)c1nc[nH]c1C(=O)N[C@@H](CCCCNC(=O)OC(C)(C)C)C(=O)OC(C)(C)C)C(=O)OCc1ccccc1	nt	-13	nt	nt	1.8
Cc1ccc(C)c(NS(=O)(=O)c2ccccc2C)c1	nt	-1	nt	nt	2.3
Cc1cc(N2CCN(C3CCCCC3)CC2)n2nc(C)nc2n1	-3	3	nt	1	1.8	Arbovirus inh repeat=1
C#CCSc1nc2[nH]ncc2c(=O)[nH]1	-23	5	0%	-2	1.9
COc1cc(SC)ccc1C(=O)OCC(=O)NC1CC1	nt	-4	2%	0	-2.3
Cc1cc(S(=O)(=O)n2cnc3ccccc32)c(C)cc1Cl	-7	9	-5%	6	-4.2
CCC(C(=O)NC1CCCC1)N(C(=O)Cn1nnc(-c2ccc(C)cc2)n1)C1CCCC1 (configuration not stated)	-10	2	6%	-7	0.1
O=C(NC1CCCC1)C1CCN(C(=O)c2cccc(Cl)c2)CC1	nt	-3	nt	nt	-1.1
O=S(=O)(O)c1cc(OS(=O)(=O)c2ccccc2)cc2ccccc12	nt	-3	nt	nt	-0.5
CS(=O)(=O)N1CCN(c2ncnc3c2cnn3-c2ccccc2)CC1	nt	-2	-5%	3	2.0
COc1cc(/C=C2/NC(=O)NC2=O)cc(Br)c1OCc1cccc(C(=O)O)c1	nt	-1	-1%	1	1.3
CS(=O)(=O)c1ccc(C(=O)N(CCc2ccccc2)Cc2ccccc2)cc1	nt	-5	nt	nt	0.3
Cc1ccc2c(C)c(C(=O)N3CCN(Cc4ccc5c(c4)OCO5)CC3)oc2c1C	nt	59	nt	nt	14
CCCc1nc(NCc2ccncc2)c2nnn(Cc3ccccc3F)c2n1	-21	-1	7%	-4	-1.3
O=C(CN1CCC(n2nnc3cc(F)ccc32)CC1)NC1CC1	-24	-2	-5%	-1	0.0
C/C(=N\NC(=O)CN1CCN(S(=O)(=O)c2ccc(C)cc2)CC1)c1ccncc1	nt	-1	2%	nt	-4.0
Cc1cc(C)c(S(=O)(=O)N(C)CC(=O)NCCCn2ccnc2)c(C)c1	nt	-6	nt	nt	-0.2
CC(C)CCn1cnc2c(NCc3ccccc3)ncnc21	-12	8	-4%	-9	0.1
CCn1c(CNC(=O)c2ccccc2F)cc2ccccc21	nt	-5	nt	nt	1.0
CCc1nn(CC(=O)Nc2cc(C)ccc2C)c(=N)s1	nt	-3	0%	20	-2.8
CSc1ccc(CN2CCCN(C)CC2)cc1	nt	-2	nt	nt	-2.6
COC(=O)c1c(NC(=O)CCC(=O)O)sc2c1CCCCC2	-42	-2	-7%	-4	-1.2
CCc1nnc(NC(=O)CCN(c2cc(C)cc(C)c2)S(=O)(=O)c2ccc(Cl)cc2)s1	7	-6	6%	-16	0.1
O=C(COC(=O)C1=COCCO1)NC1CCCCC1	nt	36	nt	nt	1.7
O=C(NCCC1=CCCCC1)c1cc2ccccc2oc1=O	nt	-4	0%	nt	1.2
O=C1CC2(CCN(C(=O)C3CC(=O)N(c4ccccc4)C3)CC2)Oc2ccccc21 (configuration not stated)	nt	-13	nt	nt	-0.2
Cc1nnc(SCC(=O)N(C(C)C)C(C)C)[nH]c1=O	nt	-1	-1%	1	2.9
COc1nc(N)c(S(=O)(=O)c2ccc(C)cc2)cc1C#N	-53	8	-2%	-18	0.1
CCCS(=O)(=O)N1CCC(C(=O)NCc2cccnc2)CC1	2	-8	3%	8	-4.1
CCN(CC(=O)Nc1ccc(NC(C)=O)cc1)C(=O)/C=C/c1c(C)nn(-c2ccc(F)cc2)c1C	nt	-2	nt	nt	0.1
Cc1sc(NC(=O)CSc2nnnn2C2CCCCC2)c(C#N)c1C	-22	-4	nt	-1	0.9
COc1ccc(-n2ncc3c(=O)n(CC(=O)N4CCCc5ccccc54)cnc32)cc1	-59	?	5%	3	-6.1
Clc1ccc(C2[C@H]3CN(CC4CCCCC4)[C@H](c4ccccc4)C34CC2(c2ccccc2)C4)cn1 (some centres not stated)	nt	-10	7%	nt	2.8
CCN(CC)CCNC(=O)/C(=C/c1cn(C)c2ccccc12)NC(=O)c1ccc(OC)c(OC)c1	nt	-5	-7%	nt	2.8
Cc1ccc(OCC(=O)NCCCNC(=O)c2ccccn2)cc1C	nt	-6	nt	nt	0.4
CC1CCCC(C)N1/N=C/c1cccc(Br)c1 (configuration not stated)	nt	-7	nt	nt	7.4
COc1ccccc1C(CCNCc1ccccc1)c1ccc(OC(C)C)cc1 (configuration not stated)	nt	100	nt	nt	10
NC(=S)N/N=C/c1cc([N+](=O)[O-])ccc1OCCOc1ccccc1	-1	-14	2%	0	-2.5
CN(c1ccccc1C(=O)NCc1ccccc1Cl)S(=O)(=O)c1ccccc1	nt	-3	nt	nt	3.3
CC1CCCCC1n1c(=S)[nH]c2ccccc2c1=O (configuration not stated)	7	nt	9%	-35	7.7
COc1ccc(/C=C/C(=O)Nc2ccc(NC(C)=O)cc2)cc1S(=O)(=O)N1CCOCC1	nt	4	-3%	nt	-1.4
Cc1ccccc1[C@@H]1C(C#N)=C(N)S[C@H]1C(=O)c1ccccc1	12	5	-1%	-8	3.5
(list continues)
SMILES	YopH PTP inh	Mtb betalactam	Mtb growth	Arbovirus inh	RecA splice inh	others
CC(C)C(NC(=O)CN(c1cccc(F)c1)S(C)(=O)=O)C(C)C	1	2	5%	-2	0.4
O=C(C1CCC(=O)N1Cc1cccs1)N1CCOCC1 (configuration not stated)	nt	4	2%	4	-2.0
CN1CCN(c2ccc(CNS(=O)(=O)c3ccc(Cl)cc3)cc2)CC1	nt	-9	-3%	nt	1.7
COc1ccc(S(=O)(=O)N2CCOC23CCN(S(=O)(=O)c2cc(C)ccc2C)CC3)cc1	nt	-1	nt	nt	2.0
CCS(=O)(=O)c1ccc2oc(SCC(=O)NC3CCCC(C)C3C)nc2c1 (configuration not stated)	-2	-7	7%	12	-0.1
CCCN1C(=O)SC(CC(=O)Nc2ccc(Br)cc2)C1=O (configuration not stated)	15	98	1%	-3	-0.2
O=C(O)c1ccccc1C(=O)Nc1ccc(Oc2ccccc2)cc1	nt	86	52%	nt	1.9
O=c1c(-c2ccccc2)c[nH]n1-c1cccc([N+](=O)[O-])c1	nt	3	21%	35*	-5.0
CSc1ccccc1NC(=O)Nc1cccc(Cl)c1	-3	5	-2%	19	2.1
O=C(NC(=S)Nc1cccc2ncccc12)c1ccccc1	nt	-5	5%	1	-0.3
S=C(Nc1ccc(Oc2ccccc2)cc1)N1CCOCC1	nt	1	nt	nt	-3.0
O=C(NCCc1ccccc1)N1CCCC(CNS(=O)(=O)Cc2ccccc2)C1 (configuration not stated)	nt	5	-2%	4	-0.5
CN1C(=O)NC(NC(=O)c2ccncc2)(C(F)(F)F)C1=O (configuration not stated)	-37	4	-1%	0	1.6
Cc1cccc(NS(=O)(=O)c2cc3c4c(c2)CC(=O)N4CCC3)c1C	nt	-9	nt	nt	2.7
CC(C)[C@H](NC(=O)[C@H](CCCN=C(N)N)NC(=O)NC(Cc1ccccc1)C(=O)O)C(=O)NC(C=O)CCCN=C(N)N (some centres not stated)	-2	3	-1%	12	0.4
CCN(CC(=O)Nc1ccc(C(C)=O)cc1)CC(=O)Nc1cccc(OC)c1	nt	-13	-3%	-3	3.0
C=CCc1cccc(/C=C/c2cc(=O)c3ccccc3[nH]2)c1O	-17	1	5%	-6	-0.8
O=C1NCCN1C(=O)c1ccccc1F	-50	-2	-6%	-2	-0.1
C=CCNC(=O)c1cccc(OC2CCN(CC(C)(C)C)CC2)c1	nt	-3	nt	nt	-0.1
CNC(=O)/C=C/c1cc(C(=O)c2ccc(Cl)cc2Cl)cn1C	nt	0	nt	nt	1.7
COC(=O)c1c(NC(=O)CSc2ncnc3ccccc23)sc(C)c1C	nt	4	nt	nt	12
CCOC(=O)c1cc(-c2ccc(Cl)s2)nc2c1c(C)nn2C	-7	nt	5%	-15	-2.7
CC1(C)C2SCC(=O)N2CCN1CC(=O)NN (configuration not stated)	nt	14	nt	nt	-1.6
CCn1c(Cc2ccccc2)nnc1SCC(=O)Nc1ccc(C)cc1	-17	4	-5%	-17	0.2
CCCCOC(=O)CSCC(=O)Nc1cc(C)on1	-33	1	-7%	3	-1.2
O=C(CN(CCc1ccccc1)Cc1ccccc1)Oc1ccccc1P(=O)(O)O	nt	?	nt	nt	0.0
CCc1ccc(/C=N/NC(=O)C(=O)NCCCN2CCOCC2)cc1	-16	-1	2%	7	-0.2
CCc1nn(C(C)C(=O)NC(C)CCc2ccco2)c(=O)c2cc3occc3n12 (configuration not stated)	-14	-13	-5%	-5	2.9
O=[N+]([O-])c1ccc(/C=N/Nc2nc(N3CCCCCC3)nc(N3CCCCCC3)n2)o1	-23	-6	nt	-21	27
Cc1csc(OCC(=O)Nc2ccc(C)c(C)c2)n1	-38	1	-6%	2	0.4
Cc1ccccc1OCC(=O)OCC(=O)c1ccc(-c2ccccc2)cc1	-38	4	-1%	-9	8.1
CN(C(=O)c1ccccc1)c1ccc(OCC(=O)NC2CCS(=O)(=O)C2)cc1 (configuration not stated)	-41	-1	-11%	-1	0.1
Cc1ccc(NC(=O)C2CC(=O)N/C(=N/N=C/c3ccco3)S2)cc1C (configuration not stated)	9	5	-3%	-6	1.4
O=C1N(CC(=O)N2CCc3ccccc32)CCN1Cc1ccccc1Cl	-10	-6	6%	-5	1.0
Cc1ccc(NC(=O)CN2CCN(S(=O)(=O)c3cccs3)CC2)cc1S(=O)(=O)N(C)C	nt	-3	-1%	3	2.6
CCCCn1c(SCC(=O)c2ccccc2)nc2c1c(=O)[nH]c(=O)n2C	11	9	3%	4	0.8
CCC(C)N(C(=O)COc1ccc(NC(C)=O)cc1)C1CCS(=O)(=O)C1 (configuration not stated)	nt	-4	0%	-2	2.2

Screening results: PubChem BioAssay, several laboratories

These rows are one share of the data; the hit share may differ from the screen's.
